# NS1 inh = qHTS Assay for Inhibitors of Influenza NS1 Protein Function; AID 2326, 2010; actives 0.4% (n = 270,000); Potency, µM (highest dose often 46.1 µM), without a hit: at the top dose activity, positive = more growth; S. cerevisiae slowed by influenza A NS1, growth recovery by OD600; active means well fitted rising curve with a large enough effect; inconclusive means small, poorly fitted or top-dose-only effect; inactive means no such curve, though single readings can be large or run the other way; further: nearly all actives have a fitted effect of over 50% in size
#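 Growth recovery, yeast-based: influenza A NS1 expressed in S. cerevisiae causes slow growth, and suppressors are detected by OD600. The parent strain without NS1 is used as positive control.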
# LASV entry inh = qHTS for Inhibitors of binding or entry into cells for Lassa Virus; Lassa virus pseudotype entry inhibition, cell reporter; control for the full effect not named in the record; Potency, µM (doses to about 37.9 µM), without a hit: at the top dose activity change, negative = inhibition, usual class: inhibitors; actives 1.2% (n = 300,000); AID 540256, 2011; active means well fitted inhibition curve with a large enough effect; inconclusive means small, poorly fitted or top-dose-only effect, or effect the other way; inactive means flat fitted curve, though single readings scatter; tested in HEK293 cells; further: on the % scale 0 is the no-effect control and ±100 the full control effect; nearly all actives have a fitted effect of over 50% in size; luciferase read-out
# Cruzain inh noDet = qHTS Assay for Promiscuous and Specific Inhibitors of Cruzain (without detergent). purified cruzain, Z-FR-AMC fluorescence, no detergent. actives 2.3% (n = 200,000). Cruzipain (Trypanosoma cruzi), P25779. Potency, µM, without a hit: max response, negative = inhibition, hits mostly inhibitors. AID 1476, 2009;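 further: plate controls were enzyme without inhibitor for no effect and buffer without enzyme for full effect; nearly all actives have a fitted effect of over 40% in size; top concentration of the series not given in the record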
# Target sequence (P25779 123-467 limits assumed): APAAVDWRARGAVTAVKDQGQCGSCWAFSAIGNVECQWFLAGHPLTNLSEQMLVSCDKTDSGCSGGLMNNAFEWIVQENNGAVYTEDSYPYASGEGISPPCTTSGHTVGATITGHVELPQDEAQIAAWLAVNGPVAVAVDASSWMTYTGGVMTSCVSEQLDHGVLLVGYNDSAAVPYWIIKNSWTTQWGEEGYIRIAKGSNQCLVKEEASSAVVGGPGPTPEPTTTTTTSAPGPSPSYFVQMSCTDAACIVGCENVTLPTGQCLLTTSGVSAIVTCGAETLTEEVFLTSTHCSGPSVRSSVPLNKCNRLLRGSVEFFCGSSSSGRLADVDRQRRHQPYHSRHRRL
#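 Detergent-free condition (0.00005% Triton X-100) in acetate buffer pH 5.5 with DTT. 1.5 nM enzyme and compound were pre-mixed 15 min, then 2 uM Z-FR-AMC substrate added; reaction progress from fluorescence change between first and third reads (60 s).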
# Marburg entry inh = qHTS for inhibitors of binding or entry into cells for Marburg Virus; Marburg virus pseudotyped entry inhibition, cell reporter; control for the full effect not named in the record; about a third of the inactives were read at about 46 µM; Potency, µM (series often up to 37.8 µM), without a hit: top-dose activity change, negative = inhibition, actives largely listed as inhibitors; actives 1.8% (n = 300,000); AID 540276, 2011; active = well fitted inhibition curve with a large enough effect; inconclusive = small, poorly fitted or top-dose-only effect, or effect the other way; inactive = flat fitted curve, though single readings scatter; tested in HEK293 cells; about a fifth of its hits are not listed in these tables; further: on the % scale 0 is the no-effect control and ±100 the full control effect; luciferase read-out
# 2A StopGo = High Throughput Screening for Foot and Mouth Disease Virus Antivirals; actives 1.2% (n = 410,000); Potency, µM (highest dose often 57.9 µM), inactives show at the highest dose signal change, negative = less light; human cells with a luciferase reporter of 2A StopGo recoding; control for the full effect not named in the record; active = well fitted falling curve with a large enough effect; inconclusive = small, poorly fitted or top-dose-only effect; inactive = no such curve, though single readings can be large or run the other way; tested in HEK293T cells; further: on the % scale 0 is the no-effect control and ±100 the full control effect; nearly all actives have a fitted effect of over 45% in size; luciferase light after 4 h
# SARS PLP yeast = qHTS of Yeast-based Assay for SARS-CoV PLP | S. cerevisiae expressing SARS-CoV PLpro, growth rescue; control for the full effect not named in the record | Potency, µM (top dose mostly 32.9 µM), without a hit: at the highest dose activity, positive = growth rescue | actives 0.19% (n = 330,000) | AID 485353, 2010; active means well fitted rising curve with a large enough effect; inconclusive means small, poorly fitted or top-dose-only effect; inactive means no such curve, though single readings can be large or run the other way; further: 0% is about no effect; nearly all actives have a fitted effect of over 55% in size; growth read by luminescence after 48 h
# RE007 growth inh = qHTS Assay for Inhibitors of the HIV-1 protein Vpr; S. pombe RE007 Vpr strain, BacTiter-Glo ATP luminescence, 24 h; control for the full effect not named in the record; Potency, µM (highest dose often 92.2 µM), for the others: top-dose activity change, negative = less growth; actives 0.21% (n = 360,000); AID 651644, 2012; active = well fitted falling curve with a large enough effect; inconclusive = small, poorly fitted or top-dose-only effect; inactive = no such curve, though single readings can be large or run the other way;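 further: on the % scale 0 is the no-effect control and ±100 the full control effect; nearly all actives have a fitted effect of over 50% in size; the assay follows cell death caused by Vpr and the record does not say whether a fall means rescue or toxicity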
#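 Fission yeast strain RE007, carrying one chromosomally integrated HIV-1 vpr copy, was seeded at OD 0.01 in PMG+AL medium with 23 nL pinned compound. After 24 h at 30 °C and 99% humidity, viability was read by BacTiter-Glo luminescence.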
# Cruzain inh Det = qHTS Assay for Promiscuous and Specific Inhibitors of Cruzain (with detergent). purified cruzain, Z-FR-AMC fluorescence, 0.01% Triton. Potency, µM, without a hit: max response, negative = inhibition, actives largely listed as inhibitors. actives 0.43% (n = 200,000);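 further: plate controls were neutral wells for no effect and buffer without enzyme for full effect; nearly all actives have a fitted effect of over 40% in size; top concentration of the series not given in the record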
#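 Detergent-containing run (0.01% Triton X-100) in acetate buffer pH 5.5 with 5 mM DTT: enzyme at 1.5 nM final, 15 min compound preincubation at room temperature, then 2 uM Z-FR-AMC substrate. Activity taken as 60 s fluorescence increase at 360/450 nm.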
# Active calls of the source: *; ? = inconclusive; . = no result given; [ ] = dose if it differs, or a comment. Unless noted, the call rests on the fitted dose curve; in most records, active means well fitted curve in the direction sought with a large enough effect; inconclusive means small, poorly fitted or top-dose-only effect, or another doubt; inactive means no such curve, though single readings can be large; an effect the other way counts as inactive or inconclusive. Potency means the concentration at half of the fitted maximal effect.
# Field names: A = NS1 inh; B = LASV entry inh; C = Cruzain inh noDet; D = Marburg entry inh; E = 2A StopGo; F = SARS PLP yeast; G = RE007 growth inh; H = Cruzain inh Det
(1) Cc1ccc(NC(=O)c2nnn(CC(=O)Nc3ccccc3)c2N)cc1C
  A: 15%	B: -17%	C: ?	D: 11µM*	E: -1%	F: 1%	G: -9%	H: 6.2%
(2) CCOC(=O)c1c(C)nc2ncccn12
  A: 4%	B: 17%	C: 3%	D: 23%	E: -2%	F: .	G: -4%	H: 1.3%
(3) Cc1sc(NC(=O)c2ccco2)c(CN2CCN(c3ccccc3)CC2)c1C
  A: -7%	B: ?	C: -5%	D: ?	E: ?	F: 1%	G: -18%	H: -4.8%
(4) Cc1ccc(NC(=O)N2CCN3CCCCC3C2)cc1C (stereo unspecified)
  A: .	B: -3%[46.1 µM]	C: 10%	D: .	E: 22%	F: .	G: .	H: 0.7%
(5) CCn1cc(Cl)c(C(=O)N2N=C3/C(=C/c4cccs4)CCCC3C2c2cccs2)n1 (stereo unspecified)
  A: 3%	B: ?	C: ?	D: ?	E: -25%	F: 4%	G: -10%	H: -6.8%
(6) NC(=O)CN1CCN(CCN2C(=O)c3cccc4cccc(c34)C2=O)CC1
  A: 3%	B: .	C: .	D: .	E: -4%	F: 7%	G: -5%	H: .
(7) O=C1C2C3C=CC(C3=C3CCCCC3)C2C(=O)N1c1ccccc1 (stereo unspecified)
  A: -38%	B: -10%	C: 10%	D: 2%	E: ?	F: -27%	G: 35µM*	H: -11%
(8) CC1CCCN(S(=O)(=O)c2ccc3oc(=O)ccc3c2)C1 (stereo unspecified)
  A: -18%	B: 15%[46.1 µM]	C: .	D: -19%[46.1 µM]	E: -4%	F: -9%	G: 12%	H: .
(9) O=C(C(Cc1ccccc1)n1cccc1)N1CCN(Cc2ccccc2)CC1 (stereo unspecified)
  A: -44%	B: .	C: 0%	D: .	E: -10%	F: -2%	G: -5%	H: 0.4%
(10) CCN(CC)C1CC(=O)N(c2cccc(Cl)c2)C1=O (stereo unspecified)
  A: -126%	B: -4%[46.1 µM]	C: .	D: 1%[46.1 µM]	E: -15%	F: -23%	G: 5.6µM*	H: .
(11) Cc1cc(C)cc(-c2nnc(SCC(=O)N3CCN(C(=O)c4ccco4)CC3)o2)c1
  A: 1%	B: -23%	C: ?	D: 5%	E: ?	F: 5%	G: 7%	H: -1.9%
(12) NC(=S)NC(=O)/C=C/c1ccccc1
  A: .	B: -35%	C: .	D: ?	E: 26%	F: 8%	G: -9%	H: .
(13) Cc1cccc(C(=O)O)c1[N+](=O)[O-]
  A: .	B: .	C: 0%	D: .	E: -20%	F: 0%	G: -5%	H: 4.6%
(14) O=C1/C(=C/c2ccco2)Oc2c1ccc(O)c2CN1CCCCC1
  A: 14%	B: 4%	C: -12%	D: -10%	E: -4%	F: 13%	G: -10%	H: -21%
(15) C=CCOc1ccc(C2NC(=O)NC(C)=C2C(=O)OC)cc1 (stereo unspecified)
  A: ?	B: 10%	C: -26%	D: 12%	E: -15%	F: 0%	G: 5%	H: 1.2%
(16) O=C(Nc1ccc(F)cc1)C1CC(=O)n2ncnc2N1 (stereo unspecified)
  A: .	B: -2%	C: .	D: -1%	E: -19%	F: 2%	G: 36%	H: .
(17) C=CCN(c1ccccc1OC)S(=O)(=O)c1cccc(C(=O)OC2CCOC2=O)c1 (stereo unspecified)
  A: .	B: 12%[46.1 µM]	C: .	D: -5%[46.1 µM]	E: -13%	F: -3%	G: 1%	H: .
(18) Cn1cc(S(=O)(=O)CC(=O)N2CCCc3ccccc32)c2ccccc21
  A: 1%	B: .	C: -10%	D: .	E: 0%	F: 2%	G: 1%	H: 0.8%
(19) COC(=O)CC1=NN(c2ccc(OC)cc2)C(=O)C1
  A: 10%	B: -2%	C: .	D: -3%[46.1 µM]	E: -5%	F: 18%	G: -7%	H: .
(20) COc1ccc(-c2noc(N3CCC(C(=O)NCc4ccccc4Cl)CC3)n2)cc1
  A: 9%	B: .	C: .	D: .	E: -8%	F: -18%	G: 6%	H: .
(21) Cc1cc(C)n(C2CCCCC2OC(=O)c2ccccc2)n1 (stereo unspecified)
  A: -46%	B: 17%	C: 15%	D: -7%[46.1 µM]	E: -11%	F: 3%	G: 8%	H: 1.7%
(22) O=C(c1cccc(S(=O)(=O)Nc2ccccc2Cl)c1)N1CCCCCC1
  A: .	B: -27%	C: .	D: -26%	E: 15%	F: 4%	G: 5%	H: .
(23) COc1ccc(-c2nn(-c3ccccc3)cc2/C=N/NC(=O)c2ccc(Br)o2)cc1
  A: -7%	B: ?	C: 25µM*	D: ?	E: ?	F: -23%	G: 10%	H: -0.3%
(24) Cc1c(NC(=O)Nc2cccc(F)c2)c(=O)n(-c2ccccc2)n1C
  A: 8%	B: .	C: .	D: .	E: -18%	F: -1%	G: 7%	H: .
(25) CCCNC(=O)NCCc1c(C)[nH]c2ccccc12
  A: -59%	B: .	C: 0%	D: .	E: -6%	F: 5%	G: -7%	H: 7.1%
(26) Nc1nc(N)c2c(ccc3nccc32)[nH]1
  A: 2%	B: .	C: .	D: .	E: 20%	F: 2%	G: 17%	H: .
(27) Cc1cccc(N=Nc2c(O)[nH]c3ccc(Br)cc23)c1
  A: 0%	B: 6%[46.1 µM]	C: .	D: 5%[46.1 µM]	E: 37%[activator]	F: 0%	G: -6%	H: .
(28) CNC(=O)c1ccc2nc(Cc3ccccc3)oc2c1
  A: .	B: -2%[46.1 µM]	C: 4%	D: .	E: 43%[activator]	F: .	G: .	H: -0.5%
(29) O=C1c2ccccc2C(=O)N1CCCCSc1nc2ccccc2o1
  A: -57%	B: -16%	C: 2%	D: 3%	E: ?	F: -10%	G: -1%	H: -1.3%

# Six entries already listed, ordered by number of heavy atoms, rising:
# Field names: A = NS1 inh; B = LASV entry inh; C = Cruzain inh noDet; D = Marburg entry inh; E = 2A StopGo; F = SARS PLP yeast; G = RE007 growth inh; H = Cruzain inh Det
(26) Nc1nc(N)c2c(ccc3nccc32)[nH]1
  A: 2%	B: .	C: .	D: .	E: 20%	F: 2%	G: 17%	H: .
(19) COC(=O)CC1=NN(c2ccc(OC)cc2)C(=O)C1
  A: 10%	B: -2%	C: .	D: -3%[46.1 µM]	E: -5%	F: 18%	G: -7%	H: .
(16) O=C(Nc1ccc(F)cc1)C1CC(=O)n2ncnc2N1 (stereo unspecified)
  A: .	B: -2%	C: .	D: -1%	E: -19%	F: 2%	G: 36%	H: .
(21) Cc1cc(C)n(C2CCCCC2OC(=O)c2ccccc2)n1 (stereo unspecified)
  A: -46%	B: 17%	C: 15%	D: -7%[46.1 µM]	E: -11%	F: 3%	G: 8%	H: 1.7%
(29) O=C1c2ccccc2C(=O)N1CCCCSc1nc2ccccc2o1
  A: -57%	B: -16%	C: 2%	D: 3%	E: ?	F: -10%	G: -1%	H: -1.3%
(17) C=CCN(c1ccccc1OC)S(=O)(=O)c1cccc(C(=O)OC2CCOC2=O)c1 (stereo unspecified)
  A: .	B: 12%[46.1 µM]	C: .	D: -5%[46.1 µM]	E: -13%	F: -3%	G: 1%	H: .
